Source: PubChem BioAssay (Southern Research Institute)
Mtb H37Rv = Mycobacterium tuberculosis H37Rv growth inhibition, putative kinase inhibitor library, confirmatory dose response (AID 2842) | M. tuberculosis H37Rv growth inhibition; higher % means a stronger effect; some inactives read as strong as hits | inhibition, % at 10 µg/mL, or IC90 in µg/mL where a hit was titrated | 24,000 tested, 5.2% active;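 active means confirmed in a dose series; about a fifth of its hits are not listed in these tables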;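 further: bacteria incubated one week before Alamar blue readout; 0% = bacteria only wells and 100% = bacteria with high antibiotic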
Active calls of the source: *.

SMILES	Mtb H37Rv
COc1cccc(C(=O)Oc2cc(C)[nH]c(=O)c2[N+](=O)[O-])c1	0%
COc1ccc(Cn2cc(C(=O)c3ccc(Cl)cc3)c(=O)c3cc4c(cc32)OCCO4)cc1	15%
N#CC1=C(N)OC2=C(C(=O)CCC2)C1c1ccc(-c2cccc([N+](=O)[O-])c2)o1 (configuration not stated)	9%
CC(C)CN(C1CCS(=O)(=O)C1)S(C)(=O)=O (configuration not stated)	-1%
Cc1ccc(C(=O)Nc2c(C#N)[nH]c3sc4c(c23)CCCC4)cc1	4%
CC(=O)N1CCc2c(sc(NC(=O)c3cc(-c4ccccc4)nc4ccccc34)c2C#N)C1	-3%
CC(=O)c1sc(NC(=O)c2cccc(Cl)c2)nc1-c1ccccc1	9%
COc1ccc(-n2c(=O)cc(N3CCc4ccccc43)[nH]c2=O)cc1	5%
COc1cccc(NC(=O)CSc2nc3c(c(=O)n2C)SC(C)C3)c1 (configuration not stated)	11%
CCOC(=O)c1nn(-c2ccccc2)c(=O)c2c(NC(=O)c3ccccc3)scc12	-8%
Cc1cccc(Cn2c(SCCC(=O)O)nc3c2c(=O)[nH]c(=O)n3C)c1	-3%
Cc1ccc(C2NC(=O)NC(O)(C(F)(F)F)C2C(=O)c2cccs2)o1 (configuration not stated)	10%
Nc1ncnc(NNC(=O)CNC(=O)c2cccc(F)c2)c1[N+](=O)[O-]	3%
O=C(CN1C(=O)CC(c2ccco2)Sc2ccccc21)Nc1ccccc1F (configuration not stated)	19%
CCOC(=O)c1nn(-c2ccccc2)c(=O)c2c(NC(=O)c3cccc4ccccc34)scc12	-3%
Cc1ccc(C2=NC(C)(C)N=C2SCC(=O)Nc2ccc(Cl)cc2)cc1	83%
Cc1ccc(NC(=O)C(=O)Nc2cc3c4c(c2)CCC(=O)N4CCC3)cc1C	3%
O=C(O)c1ccccc1SC1CC(=O)N(c2ccc([N+](=O)[O-])cc2)C1=O (configuration not stated)	-19%
CN(C)S(=O)(=O)c1ccc(C(=O)Nc2ccccc2)cc1	-2%
CSc1nc2ccc3nc(NC(=O)c4cc5ccccc5oc4=O)sc3c2s1	26µg/mL*
NC(=O)c1nc(-c2cccnc2)nc2c1[nH]c(=O)n2-c1ccc(Cl)c(Cl)c1	5%
Cc1cccc(C(=O)Nc2nc(-c3ccc4c(c3)OCO4)cs2)c1	5%
Cc1nc(SCC(=O)NCc2ccco2)c2c3c(sc2n1)CCCC3	14%
Cc1ccc(-n2ncc3c(=O)n(CC(=O)NCc4ccco4)cnc32)c(C)c1	2%
CCc1ccc(OCC(=O)Oc2ccc([N+](=O)[O-])cc2)cc1	2%

Taken from above.
CCc1ccc(OCC(=O)Oc2ccc([N+](=O)[O-])cc2)cc1 in Mtb H37Rv is listed with 2%
COc1ccc(-n2c(=O)cc(N3CCc4ccccc43)[nH]c2=O)cc1 in Mtb H37Rv is listed with 5%
COc1cccc(NC(=O)CSc2nc3c(c(=O)n2C)SC(C)C3)c1 (configuration not stated) in Mtb H37Rv is listed with 11%
Cc1ccc(NC(=O)C(=O)Nc2cc3c4c(c2)CCC(=O)N4CCC3)cc1C in Mtb H37Rv is listed with 3%

Other compounds follow:
SMILES	Mtb H37Rv
COc1ccc2nc(NNC(=O)c3cc(-c4cccs4)nc4ccccc34)sc2c1	1%
COc1cc(C2C=C(c3ccc(C)cc3)Nc3ncnn32)cc(OC)c1OC (configuration not stated)	-16%
Cc1ccc(-c2nnc(NC(=O)c3c(F)cccc3Cl)s2)cc1	-9%
Cc1ccccc1-c1nnc(NC(=O)C2CCCCC2)s1	1%
Cc1cc(SCC#N)nc(=O)[nH]1	-13%
CCOc1c(CC)cnc2c1c(=O)n(CC#N)c(=O)n2C	-4%
O=C(CCCS(=O)(=O)c1ccc(Cl)cc1)Nc1ncnc2sccc12	2%
Nc1nc(SCC(=O)Nc2ccc(Cl)cc2)[nH]c(=O)c1NC(=O)c1ccccc1F	-11%
CCOC(=O)c1nn(-c2ccc(C(F)(F)F)cc2)c(=O)c2c(NC(=O)Cc3cccs3)scc12	-5%
CN(Cc1ccccc1)c1nc2c(c(=O)n(C)c(=O)n2C)n1CCSc1nc2ccccc2o1	13%
CCc1ccccc1NC(=O)CSc1nc2c(oc3ccccc32)c(=O)n1CCOC	8%
CCOc1cccc2cc(S(=O)(=O)c3ccccc3)c(=O)oc12	-3%
CCCC(=O)Nc1ccc(S(=O)(=O)Nc2ccc3c(c2)NC(=O)C(C)(C)CO3)cc1	8%
CCOC(=O)c1nn(-c2ccc(C(F)(F)F)cc2)c(=O)c2c(NC(=O)c3cccc(F)c3)scc12	3%
OCCN1CCN(C(c2ccc(F)cc2)c2sc3ncnn3c2O)CC1 (configuration not stated)	11%
Cc1nnc(SCC(=O)N2CCOCC2)n(N)c1=O	-3%
Cc1ccc(-c2nnc3ccc(SCC(=O)Nc4cccc(Cl)c4)nn23)cc1	0%
CCC(C)(C)C1CCc2sc3ncnc(N=Nc4c(O)[nH]c5ccccc45)c3c2C1 (configuration not stated)	-8%
NC(=O)c1c(NC(=O)c2cc(-c3ccccc3)nc3ccccc23)sc2c1CCCCC2	-5%
Cc1ccc(C(=O)c2cn(CC(=O)Nc3ccc(F)cc3)c3cc4c(cc3c2=O)OCCO4)cc1	-3%
CCCOc1ccc(S(=O)(=O)Nc2ccc3c(c2)CCC(=O)N3CC)cc1	13µg/mL*
Cc1ccc(C(=O)Nc2c(N)nc(SCc3cccc(C)c3)[nH]c2=O)cc1	-1%
O=C(Nc1ccc2c(c1)OCCO2)c1oc2ccccc2c1NC(=O)C12CC3CC(CC(C3)C1)C2	31%
CC(C)(C)n1nc2c(c1NC(=O)Cc1ccccc1)CS(=O)C2 (configuration not stated)	-5%
COc1ccccc1C(=O)Nc1cc2c3c(c1)CCN3C(=O)CC2	20%

Reprinted at random: seven compounds from above.
SMILES	Mtb H37Rv
O=C(CCCS(=O)(=O)c1ccc(Cl)cc1)Nc1ncnc2sccc12	2%
OCCN1CCN(C(c2ccc(F)cc2)c2sc3ncnn3c2O)CC1 (configuration not stated)	11%
Cc1cc(SCC#N)nc(=O)[nH]1	-13%
COc1cc(C2C=C(c3ccc(C)cc3)Nc3ncnn32)cc(OC)c1OC (configuration not stated)	-16%
O=C(Nc1ccc2c(c1)OCCO2)c1oc2ccccc2c1NC(=O)C12CC3CC(CC(C3)C1)C2	31%
COc1ccccc1C(=O)Nc1cc2c3c(c1)CCN3C(=O)CC2	20%
COc1ccc2nc(NNC(=O)c3cc(-c4cccs4)nc4ccccc34)sc2c1	1%

The main list resumes, starting 2 compounds before the break.
SMILES	Mtb H37Rv
CC(C)(C)n1nc2c(c1NC(=O)Cc1ccccc1)CS(=O)C2 (configuration not stated)	-5%
COc1ccccc1C(=O)Nc1cc2c3c(c1)CCN3C(=O)CC2	20%
Cc1ccc(NC(=O)c2sc3nc4c(cc3c2N)C(=O)CCC4)cc1Cl	0%
CC(C)n1c(SCCCc2ccccc2)nc2c1c(=O)[nH]c(=O)n2C	16%
COc1ccc(-n2ccnc(SCc3cccc(Cl)c3)c2=O)cc1OC	-3%
CCOc1ccc(NC(=O)CSc2ncnc3c2nnn3-c2ccc(F)cc2)cc1	-6%
CCOC(=O)c1c(NC(=O)c2ccc3ncsc3c2)sc2c1CC(C)(C)NC2(C)C	-7%
O=C(CSc1ccc2nnc(-c3cccnc3)n2n1)Nc1cccc(C(F)(F)F)c1	2%
O=C(CSc1ccc(-c2ccc3c(c2)OCO3)nn1)Nc1nc2ccccc2s1	-11%
CCCCc1nnc(NC(=O)CCCN2C(=O)/C(=C/c3ccc(Cl)cc3)SC2=S)s1	9%
O=C(CSc1ccc2nnc(-c3cccnc3)n2n1)Nc1ccc(F)cc1	-2%
CCOC(=O)N1CCc2c(sc(NC(=O)c3ccco3)c2-c2nc3ccccc3s2)C1	50µg/mL*
Cc1c(C(=O)OCn2nnc3ccccc3c2=O)cccc1[N+](=O)[O-]	-9%
Cc1cc(C(=O)Nc2ncc(Cc3ccc(F)cc3)s2)c(C)o1	63%
CN(C)S(=O)(=O)c1ccc(C(=O)Nc2nnc(-c3cc(Cl)ccc3Cl)o2)cc1	3.9µg/mL*
COc1ccc(Cl)cc1NC(=O)CSc1nc(N)c(NC(=O)c2cccs2)c(=O)[nH]1	-2%
CCOc1ccccc1NC(=O)Cn1ccc2c(OC)cccc2c1=O	11%
C=CCn1c(N2CCN(Cc3ccccc3C)CC2)nc2c1c(=O)[nH]c(=O)n2C	5%
NC(=O)c1ccc[n+](CC(=O)c2ccc3c(c2)Cc2ccccc2-3)c1	4%
CCCc1cc(=O)[nH]c2nnc(SCc3ccc([N+](=O)[O-])cc3)n12	-6%
COc1ccc(Cl)cc1C(=O)Oc1cc(C)[nH]c(=O)c1[N+](=O)[O-]	62%
N#Cc1ccccc1NC(=O)CC1Nc2ccccc2NC1=O (configuration not stated)	10%
COc1ccc2nc(-c3cccc(NC(=O)Cc4ccccc4)c3)cn2n1	4%
COc1ccc(C(=O)Nc2c(N)nc(SCC(=O)Nc3ccccc3C(F)(F)F)[nH]c2=O)cc1OC	-4%
Cc1ccc(NC(=O)C(C)Oc2ccc3c(C)cc(=O)oc3c2)c(C)c1 (configuration not stated)	18%
Cc1ccc2[nH]cc(C(=O)O)c(=O)c2c1	-4%
Cc1ccccc1Nc1nc(N(C)C)nc2c1cnn2-c1ccccc1	9%

As a short view, four of the compounds above:
SMILES	Mtb H37Rv
COc1ccc(C(=O)Nc2c(N)nc(SCC(=O)Nc3ccccc3C(F)(F)F)[nH]c2=O)cc1OC	-4%
Cc1ccc(NC(=O)C(C)Oc2ccc3c(C)cc(=O)oc3c2)c(C)c1 (configuration not stated)	18%
Cc1ccc2[nH]cc(C(=O)O)c(=O)c2c1	-4%
Cc1ccccc1Nc1nc(N(C)C)nc2c1cnn2-c1ccccc1	9%

(continued)
SMILES	Mtb H37Rv
CCOC(=O)c1csc(Nc2nc3c(SC)cccc3s2)n1	3.1µg/mL*
CC(NC(=O)CCCc1nnc2c(=O)n(-c3ccc(Cl)cc3)ccn12)c1ccccc1 (configuration not stated)	-8%
COc1cccc(NC(=O)CN2N=NC3C(=O)N(c4ccc(F)c(Cl)c4)C(=O)C32)c1 (configuration not stated)	-4%
Cc1ccc(C(=O)NCCc2cc3c(C)ccc(C)c3[nH]c2=O)cc1	-6%
Cc1ccc(-n2c(SCC(=O)Nc3ccc(Cl)cc3)nc3c(c2=O)SCC3)cc1	11%
CS(=O)(=O)c1ccc(-c2nnc(NC(=O)/C=C/c3cccc([N+](=O)[O-])c3)o2)cc1	9%
Cc1nc2sc(C(c3ccc(C(C)C)cc3)N3CCOCC3)c(O)n2n1 (configuration not stated)	-1%
COc1cccc(C(=O)NC2CC(=O)N(c3cccc(OC)c3)C2)c1 (configuration not stated)	1%
COc1ccc(NC(=O)NC2CC(=O)N(c3ccc(OC)cc3)C2)cc1 (configuration not stated)	5%
CCN(CC)CCCNc1nc2ccccc2[nH]1	-5%
O=C(CSc1ccc2nnc(-c3cccnc3)n2n1)Nc1ccc2c(c1)OCCO2	4%
Cc1nnc(SCC(=O)Nc2c(Cl)cccc2Cl)n(N)c1=O	-3%
Cc1ccc(S(=O)(=O)N2CC(=O)Nc3ccc(Br)cc3C2c2ccccc2)cc1 (configuration not stated)	4%
COc1ccc(/C=C2\SC(=Nc3ccc(F)cc3)NC2=O)c(OC)c1	0%
Cc1nc2c(ccc3nc(Nc4nc5c(F)cc(F)cc5s4)sc32)s1	7%
Cc1c(C)c2ccc(OCC(=O)c3ccc(Cl)cc3)c(C)c2oc1=O	9%
O=C(Nc1nnc(-c2ccc(Br)cc2)o1)c1sc2ccccc2c1Cl	6.7µg/mL*
O=C(Nc1ccc(S(=O)(=O)Nc2ccccn2)cc1)c1ccc(Cl)c(Cl)c1	-4%
CCOC(=O)c1ccc2nc(NC(=O)c3ccc(C(C)=O)cc3)sc2c1	5%
C#CCSc1nc(-c2ccccc2C)nc2c1c(=O)n(C)c(=O)n2C	-23%
CSc1ccc2nc(Nc3nc(-c4nc5ccccc5s4)cs3)sc2c1	70%
N#Cc1c(NC(=O)Cc2cccc3ccccc23)sc2c1CCCC2	-8%
CC(=O)Nc1ccc2c(c1)sc(=NC(=O)c1ccc3ncsc3c1)n2C	98%
Clc1ccc2nc(N3CCOCC3)sc2c1	23%
COc1ccccc1-n1ccnc(NCCc2ccc(S(N)(=O)=O)cc2)c1=O	-4%
SMILES	Mtb H37Rv
O=C1N=c2ccccc2=C1c1sc(=S)n(-c2ccccc2F)c1O	9%
Cn1c(=NC(=O)CSCC(=O)N2CCc3ccccc32)sc2ccccc21	3%
O=C(Nc1ccc(-c2ccc(NC(=O)c3cccs3)cc2)cc1)c1cccs1	-2%
CCOC(=O)Cn1c(Cl)c(/C=N/NC(=O)c2ccc3ccccc3n2)sc1=O	-5%
Fc1ccc(-c2nnc3c4cc5c(cc4n(Cc4ccccc4)cc2-3)OCCO5)cc1	5%
CCC(=O)Nc1nnc(-c2ccccn2)o1	17%
COc1ccc(-c2nnc(NC(=O)c3cccs3)o2)cc1	84%
O=C(CSc1ccc2nnc(CCNC(=O)c3ccc(F)cc3)n2n1)Nc1cccc(F)c1	15%
CC(C)Oc1ccc(/C(O)=C2\C(=O)C(=O)N(Cc3cccnc3)C2c2cccc(O)c2)cc1 (configuration not stated)	-10%
COc1ccc(C(=O)c2cn(Cc3ccccc3)c3cc4c(cc3c2=O)OCCO4)cc1	2%
Cc1ccc(C(=O)c2sc3nc4c(c(-c5ccc(C)o5)c3c2N)CCCC4)cc1	0%
CCOC(=O)c1cnc2ccc(F)cc2c1NCc1cccnc1	1%
COc1cccc(C(=O)Nc2sc3c(c2C#N)CCN(C(C)=O)C3)c1OC	2%
Cc1ccc(-c2nnc(NC(=O)c3ccc(F)cc3)o2)c(C)c1	26µg/mL*
Cc1ccc(C)c(Nc2nc(N3CCN(c4cccc(Cl)c4)CC3)nc3nccnc23)c1	-2%
COc1ccc(NC(=O)Cn2ccn(-c3cc(C)ccc3C)c(=O)c2=O)cc1Cl	-3%
Nc1nc(SCc2cccc([N+](=O)[O-])c2)[nH]c(=O)c1NC(=O)c1ccccc1F	3%
O=C(CC1CCS(=O)(=O)C1)Nc1cccc([N+](=O)[O-])c1 (configuration not stated)	-1%
CC(C)(C)c1ccc(C(=O)NCCSc2ncc(-c3ccccc3)[nH]2)cc1	-3%
COC(CNc1ncnc2c1cnn2C)OC	-3%

A portion of the library; the hit share may differ from the screen's.
